# Polio RdRp inh: inhibitors of poliovirus RNA polymerase binding and polymerization; poliovirus polymerase elongation, fluorescence polarization; active compounds read low; 0.66% of 150,000 active; P03300; % elongation, % (compound at 16.7 µg/mL); in the data active = % elongation below about 90%; note: some results filed as inactive read as strong as hits
# Target sequence (P03300 1749-2209 limits assumed): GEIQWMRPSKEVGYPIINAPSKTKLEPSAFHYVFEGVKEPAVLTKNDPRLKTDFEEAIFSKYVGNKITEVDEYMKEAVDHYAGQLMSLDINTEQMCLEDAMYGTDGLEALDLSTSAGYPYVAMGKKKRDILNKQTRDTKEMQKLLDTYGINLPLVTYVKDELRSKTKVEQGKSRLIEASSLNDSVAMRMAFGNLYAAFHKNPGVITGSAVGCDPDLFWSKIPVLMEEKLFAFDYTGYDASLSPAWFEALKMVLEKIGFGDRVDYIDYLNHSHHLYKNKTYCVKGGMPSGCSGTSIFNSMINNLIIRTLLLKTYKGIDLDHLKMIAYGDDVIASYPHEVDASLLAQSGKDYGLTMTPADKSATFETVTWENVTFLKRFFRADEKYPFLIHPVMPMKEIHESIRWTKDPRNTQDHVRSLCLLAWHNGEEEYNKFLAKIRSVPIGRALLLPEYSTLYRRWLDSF
# Polio RdRp inh intensity: second read-out of Polio RdRp inh, no call of its own (marks repeat the call); % elongation; measured here: total intensity read-out; formula for this scale not given here;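 total fluorescence in place of polarization; lower means less elongation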
# * hit, by the source's call.
# Values run as follows: Polio RdRp inh intensity, Polio RdRp inh
- O=S(=O)(NCCc1ccccc1)c1ccc(N2CCCCS2(=O)=O)cc1
 : 109.0, 107.0
- O=C(NCCc1csc(-c2ccc(C(F)(F)F)cc2)n1)c1ccc(F)c(F)c1
 : 107.0, 104.0
- COC(=O)CSCc1nc(-c2ccc(C(=O)OC)cc2)oc1C
 : 107.0, 108.0
- CCN(CC)CCNC(=O)Cn1nc(C)c2c(C)n(-c3ccccc3)nc2c1=O
 : 103.0, 107.0
- Cc1ccc(Nc2nc3c(S(=O)(=O)c4ccccc4)nnn3c3ccsc23)c(C)c1
 : 105.0, 98.0
- Cc1ccccc1-c1nc(CN2CCCC(C(=O)NCc3ccc(Cl)cc3)C2)c(C)o1 (configuration not stated)
 : 106.0, 106.0
- COc1cc(C2c3c(-c4ccccc4O)n[nH]c3C(=O)N2Cc2ccncc2)ccc1O (configuration not stated)
 : 105.0, 108.0
- CCOC(=O)c1cccc(NC(=O)CCCn2c(C)c3cnn(-c4ccccc4)c(=O)c3c2C)c1
 : 105.0, 105.0
- CCOCCCNC(=O)NC(CCC(C)C)c1c(-n2cccc2)sc2c1CCN(C)C2 (configuration not stated)
 : 99.0, 102.0
- Cc1ccc2oc(C(=O)Nc3cccc(Cl)c3)cc(=O)c2c1
 : 95.0, 100.0
- O=C(Cn1c(=O)c2cccn2c2cccnc21)NCc1ccccc1F
 : 110.0, 110.0
- CCCCc1cc(=O)oc2cc(C)c3c(C)coc3c12
 : 105.0, 105.0
- COc1cc(C(CC(=O)NCCC(C)C)N2Cc3ccccc3C2=O)cc(OC)c1OC (configuration not stated)
 : 94.0, 108.0
- Cc1ccc(C)c(N2CCN(C(=O)CCS(=O)(=O)c3ccc4c(c3)CC(=O)N4C)CC2)c1
 : 113.0, 107.0
- Cc1c(Cl)cccc1N1CC(c2nc3ccccc3n2Cc2ccccc2F)CC1=O (configuration not stated)
 : 110.0, 107.0
- COc1ccc(NC(=O)c2c(C)oc3ccc(O)c(CN4CCC(C)CC4)c23)cc1
 : 105.0, 99.0
- Cc1ccc(C)c(CN2C(=O)c3ccccc3S(=O)(=O)c3ccc(C(=O)N4CCN(c5ccccc5F)CC4)cc32)c1
 : 106.0, 105.0
- COc1cc(NC(=O)CNS(=O)(=O)c2cccs2)cc(OC)c1OC
 : 117.0, 114.0
- COc1cc(Cl)c(C)cc1Nc1nc2ccccc2nc1NS(=O)(=O)c1ccccc1
 : 129.0, 106.0
- COc1ccccc1N1CCN(C(=O)c2cn(C)c3ccc(S(=O)(=O)N4CCOCC4)cc3c2=O)CC1
 : 102.0, 101.0
- Cc1cccc(C(=O)Nc2cc3c(cc2N2CCCCC2)n(C)c(=O)n3C)c1
 : 101.0, 103.0
- COc1cc(CN(C(=O)c2ccc(Cl)cc2)C2CCS(=O)(=O)C2)cc(OC)c1OC (configuration not stated)
 : 108.0, 110.0
- CC1CCN(Cc2c(O)ccc3c(=O)c(Oc4ccccc4Cl)c(C(F)(F)F)oc23)CC1
 : 111.0, 108.0
- COc1ccc(NCc2cc3cc4c(cc3n(CC(=O)Nc3ccc(C)cc3)c2=O)OCO4)cc1
 : 105.0, 102.0
- CCCCNC(=O)Cn1c(=O)cc(C)c2c(C)nn(-c3ccc(CC)cc3)c21
 : 109.0, 107.0
- CCOc1ccc(Nc2oc(-c3ccc(COc4ccc(C)cc4)o3)nc2C#N)cc1
 : 108.0, 104.0
- Cc1ccc(S(=O)Cc2ccc(C(=O)NC3CCCCCC3)o2)cc1 (configuration not stated)
 : 104.0, 106.0
- Cc1ccc(Nc2nc(C)c(NC(=O)c3ccc(C)cc3)c(Nc3ccc(C)cc3)n2)cc1
 : 108.0, 107.0
- CCOc1ccccc1NC(=O)Cn1cc(C(=O)c2cccc(OC)c2)c(=O)c2ccc(C)nc21
 : 116.0, 113.0
- Cc1ccnc(NS(=O)(=O)c2cc(-c3cc(C)no3)ccc2C)c1
 : 112.0, 106.0
- COc1ccc(C(=O)NCCn2cc(SCc3cc(C)ccc3C)c3ccccc32)cc1
 : 106.0, 103.0
- CC(C)NC(=O)C1=CC(c2ccc3c(c2)OCO3)=NS(=O)(=O)N1C
 : 114.0, 111.0
- CC(C)c1ccc(NC(=O)c2ccc(=O)n(Cc3ccccc3)c2)cc1
 : 110.0, 107.0
- CCOc1cc(C(=O)Nc2cccc3cccnc23)cc(OCC)c1OCC
 : 110.0, 106.0
- COc1ccc(OC)c(-c2csc(-c3c(N)c(C(=O)c4ccc(Cl)cc4)n4ccccc34)n2)c1
 : 108.0, 104.0
- CCOCCCn1c(SCC(=O)Nc2cccc(OC)c2)nc2ccccc2c1=O
 : 108.0, 105.0
- Cc1ccc(-c2nnn3c2nc(NCCc2ccc(Cl)cc2)c2ccccc23)cc1
 : 110.0, 107.0
- Cc1cccc(-n2ncc(C(=O)NCc3ccccn3)c2C2CCN(C(=O)OC(C)(C)C)CC2)c1
 : 114.0, 110.0
- COc1ccc(Cl)cc1NC(=O)N1CCC(CN2CCCCCC2)CC1
 : 109.0, 112.0
- CCN(CC)S(=O)(=O)c1ccc2c(c1)N(CC(=O)NCCCN1CCN(c3cc(C)ccc3C)CC1)C(=O)CO2
 : 103.0, 108.0
- CCN(c1ccccc1)S(=O)(=O)c1ccc(NC(=O)c2cc(=O)c3ccccc3o2)cc1
 : 110.0, 113.0
- Cc1ccc2c(c1)c1c(c(=O)n(-c3ccccc3C)c(=O)n1Cc1cccc(F)c1)n2C
 : 101.0, 107.0
- O=C(CN1C(=O)CN=C(c2ccccc2)c2ccccc21)Nc1cccc(C(F)(F)F)c1
 : 117.0, 116.0
- CCc1ccccc1NC(=O)CN1C(=O)C2CCCN2c2ccc(S(=O)(=O)N(CC)CC)cc21 (configuration not stated)
 : 141.0, 113.0
- Cc1ccccc1-c1nc(SCC(=O)N(C)c2ccccc2)c2c(=O)n(C)c(=O)n(C)c2n1
 : 112.0, 110.0
- COc1ccc(CCNC(=O)C(=O)Nc2ccc(C)c(C)c2)cc1OC
 : 110.0, 106.0
- COC(=O)c1ccc(OC)c(CN2C(=O)N(c3ccc(C(C)=O)cc3)S(=O)(=O)c3ccccc32)c1
 : 111.0, 112.0
- Cc1nn(-c2ccc3nnc(C)n3n2)c(C)c1CCC(=O)Nc1ccc(OC(F)(F)F)cc1
 : 113.0, 107.0
- CCOc1ccc(CNC(=O)c2ccc3c(c2)nc2n3CCOC2)cc1OC
 : 100.0, 104.0
- CCCCOc1cccc(C2c3c(oc4ccccc4c3=O)C(=O)N2c2ccccn2)c1 (configuration not stated)
 : 105.0, 103.0

# Next part.
# Values run as follows: Polio RdRp inh intensity, Polio RdRp inh
- CCC(=O)N1CCc2cc(CNS(=O)(=O)c3ccc(Cl)s3)ccc21
 : 99.0, 101.0
- CCC(CC)c1nn2c(=O)cc(COc3ccc(NC(=O)c4cccc(Cl)c4)cc3)nc2s1
 : 106.0, 106.0
- COc1cc(CNC(=O)c2ccc3c(c2)c(C)c(C)n3Cc2cccc(C)c2)cc(OC)c1OC
 : 101.0, 107.0
- Cn1c(SCC(=O)Nc2ccccc2)nnc1-c1ccccc1
 : 109.0, 101.0
- Cc1ccccc1Nc1c(-c2ccsc2)nc2c(C)cccn12
 : 110.0, 114.0
- Cc1ccc(-n2nc3c(N4CCC(C(=O)N(C)Cc5ccccc5)CC4)nnc(C)c3c2C)cc1
 : 108.0, 112.0
- CCCS(=O)(=O)c1c(S(=O)(=O)CCC)c2cc(CC)ccn2c1C(=O)c1ccc(Cl)cc1
 : 101.0, 101.0
- CCCN(CCC)S(=O)(=O)c1ccc(C(=O)Nc2cccc(-c3nc4ccccc4[nH]3)c2)cc1
 : 100.0, 105.0
- Cc1cccc(-n2c(-c3ccco3)nc3c(cnn3-c3ccc(F)cc3)c2=O)c1
 : 109.0, 110.0
- COc1ccc(S(=O)(=O)NCC(c2ccco2)S(=O)(=O)c2cccs2)cc1F (configuration not stated)
 : 114.0, 108.0
- CSc1cccc(NC(=O)CN2C(=O)COc3ccc(Cl)cc32)c1
 : 113.0, 106.0
- CCCS(=O)(=O)c1nc(S(=O)(=O)c2ccc(C)cc2)c(NCCCOC(C)C)s1
 : 102.0, 100.0
- CCOc1ccc(CCNC(=O)c2cc(C)nc3c2c(C)nn3-c2cccc(F)c2)cc1
 : 113.0, 110.0
- Cc1ccc(-n2ncc3c(NCCC4=CCCCC4)ncnc32)cc1C
 : 95.0, 101.0
- CCCCOc1ccc(C(=O)Nc2cc(-c3ccc(C)cc3)no2)cc1
 : 106.0, 107.0
- CCOc1ccc(C(=O)N(Cc2sccc2C)C2CCS(=O)(=O)C2)cc1 (configuration not stated)
 : 111.0, 115.0
- CCOc1ccccc1NC(=O)CSc1ccc2nc(-c3ccccc3)cn2n1
 : 108.0, 111.0
- COc1ccc(CCNC(=O)CCn2c(=O)c3ccccc3n(Cc3ccccc3)c2=O)cc1OC
 : 106.0, 102.0
- CCCN(c1ccc(C(C)C)cc1)S(=O)(=O)c1ccc2c(c1)oc(=O)n2CC(=O)OCC
 : 101.0, 97.0
- CC1CCN(S(=O)(=O)c2cc(C(=O)Nc3ccc(Br)cc3F)n(C)c2)CC1
 : 111.0, 102.0
- COc1cccc(-c2nc3c(C#N)c[nH]n3c2NC2CCCCC2)c1
 : 110.0, 110.0
- COc1cccc(CN2CCc3nc(Nc4ccc5c(c4)OCCO5)ncc3C2)c1
 : 102.0, 106.0
- CCc1ccccc1NC(=O)c1cc(S(=O)(=O)N2CCc3ccccc32)ccc1F
 : 112.0, 109.0
- COc1ccc(C2C(=O)N(C3CCC(C)CC3)CC(=O)N2CCc2ccccc2)cc1OC (configuration not stated)
 : 113.0, 112.0
- COc1cc(OC)c(NC(=O)CCNS(=O)(=O)c2ccc3c(c2)oc(=O)n3C)cc1Cl
 : 109.0, 104.0
- CCOc1ccc(CC(=O)NCCc2csc(-c3ccc(C)cc3)n2)cc1
 : 108.0, 109.0
- O=C(NCC(c1cccs1)S(=O)(=O)c1cccs1)c1c(F)cccc1F (configuration not stated)
 : 112.0, 109.0
- COc1ccc(Cl)cc1NC(=O)C(C)Sc1nc2c(c(=O)[nH]1)CCCC2 (configuration not stated)
 : 107.0, 100.0
- CCc1ccc(NC(=O)C2CCN(c3nn4c(=O)cc(C)nc4s3)CC2)cc1
 : 108.0, 106.0
- CCc1ccc(CN2CCc3nc(Nc4ccccc4)ncc3C2)cc1
 : 102.0, 110.0
- CC(C)c1ccccc1NC(=O)CN1C(=O)c2cccc3cccc1c23
 : 105.0, 102.0
- Cc1ccc2nc(-c3ccncc3)c(Nc3ccc(C(C)C)cc3)n2c1
 : 114.0, 110.0
- COc1ccc(-c2noc(CSc3nnc(C)n3-c3cccc(C)c3)n2)cc1
 : 108.0, 109.0
- CCOC(=O)c1c(C)c(C(=O)NCCc2ccc(OC)cc2)c(C)n1C
 : 109.0, 102.0
- Cc1ccccc1OCC(=O)Nc1ccc(S(=O)(=O)Nc2ncccn2)cc1
 : 107.0, 106.0
- COc1ccc(-n2c(=O)c3c4c(sc3n(Cc3ccc(C(C)(C)C)cc3)c2=O)CCC4)c(OC)c1
 : 109.0, 104.0
- COc1ccc(C(=O)Nc2cc(C(F)(F)F)ccc2N2CCN(c3ccccc3)CC2)cc1OC
 : 103.0, 102.0
- Cc1cc(C)c2oc(-c3cccc(NC(=O)COc4ccccc4Cl)c3C)nc2c1
 : 112.0, 109.0
- Cc1ccc(C)c(N2CCN(C(=O)c3ccc4c(c3)c(C)c(C)n4C)CC2)c1
 : 109.0, 112.0

# In the list so far, 16 contain a Cl atom.
# Values run as follows: Polio RdRp inh intensity, Polio RdRp inh
- Cc1ccccc1-c1nc(CN2CCCC(C(=O)NCc3ccc(Cl)cc3)C2)c(C)o1 (configuration not stated)
 : 106.0, 106.0
- Cc1ccc2oc(C(=O)Nc3cccc(Cl)c3)cc(=O)c2c1
 : 95.0, 100.0
- Cc1c(Cl)cccc1N1CC(c2nc3ccccc3n2Cc2ccccc2F)CC1=O (configuration not stated)
 : 110.0, 107.0
- COc1cc(Cl)c(C)cc1Nc1nc2ccccc2nc1NS(=O)(=O)c1ccccc1
 : 129.0, 106.0
- COc1cc(CN(C(=O)c2ccc(Cl)cc2)C2CCS(=O)(=O)C2)cc(OC)c1OC (configuration not stated)
 : 108.0, 110.0
- CC1CCN(Cc2c(O)ccc3c(=O)c(Oc4ccccc4Cl)c(C(F)(F)F)oc23)CC1
 : 111.0, 108.0
- COc1ccc(OC)c(-c2csc(-c3c(N)c(C(=O)c4ccc(Cl)cc4)n4ccccc34)n2)c1
 : 108.0, 104.0
- Cc1ccc(-c2nnn3c2nc(NCCc2ccc(Cl)cc2)c2ccccc23)cc1
 : 110.0, 107.0
- COc1ccc(Cl)cc1NC(=O)N1CCC(CN2CCCCCC2)CC1
 : 109.0, 112.0
- CCC(=O)N1CCc2cc(CNS(=O)(=O)c3ccc(Cl)s3)ccc21
 : 99.0, 101.0
- CCC(CC)c1nn2c(=O)cc(COc3ccc(NC(=O)c4cccc(Cl)c4)cc3)nc2s1
 : 106.0, 106.0
- CCCS(=O)(=O)c1c(S(=O)(=O)CCC)c2cc(CC)ccn2c1C(=O)c1ccc(Cl)cc1
 : 101.0, 101.0
- CSc1cccc(NC(=O)CN2C(=O)COc3ccc(Cl)cc32)c1
 : 113.0, 106.0
- COc1cc(OC)c(NC(=O)CCNS(=O)(=O)c2ccc3c(c2)oc(=O)n3C)cc1Cl
 : 109.0, 104.0
- COc1ccc(Cl)cc1NC(=O)C(C)Sc1nc2c(c(=O)[nH]1)CCCC2 (configuration not stated)
 : 107.0, 100.0
- Cc1cc(C)c2oc(-c3cccc(NC(=O)COc4ccccc4Cl)c3C)nc2c1
 : 112.0, 109.0

# An excerpt from above in order of molecular weight, falling.
# Values run as follows: Polio RdRp inh intensity, Polio RdRp inh
- COc1ccc(-n2c(=O)c3c4c(sc3n(Cc3ccc(C(C)(C)C)cc3)c2=O)CCC4)c(OC)c1
 : 109.0, 104.0
- Cc1cc(C)c2oc(-c3cccc(NC(=O)COc4ccccc4Cl)c3C)nc2c1
 : 112.0, 109.0
- Cc1ccc2nc(-c3ccncc3)c(Nc3ccc(C(C)C)cc3)n2c1
 : 114.0, 110.0

# Screening data (PubChem BioAssay)

# These rows are one share of the data. The share of hits here may be higher or lower than overall.
